AID504770 – growth inhibitors of E. coli YBA685 in a screen for V. cholerae RctB (chromosome II replication) inhibitors | actives 0.27% (n = 130,000) | AID 504770 | z-score (test concentration not listed) | E. coli YBA685 rctB-dependent plasmid, OD600 growth, 3 h; stronger effect = lower value;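 active = z-score under -2 on both plates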;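 also: wells of about 30 µL received 100 nL stock; score is relative to mean and SD of the test wells; the first replicate is given; strong numbers were not always called active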
CapD inh – CapD enzyme inhibition; purified CapD enzyme, fluorescence intensity read-out; stronger effect = lower value; some hits fall short of the stated cut; z-score (no concentration beside the values); actives 0.23% (n = 140,000); AID 492967;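 active = z-score under -4 in either of two replicates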;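 also: stock transfer was 100 nL into about 40 µL; score is relative to mean and spread of the plate; one replicate is shown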
An asterisk follows results filed as active; / = no result given.

| smiles | AID504770 | CapD inh |
| --- | --- | --- |
| COc1ccc(C)cc1NC(=O)CN1CCSc2ccccc21 | -0.65 | / |
| O=C(COC(=O)c1cccc(C(F)(F)F)c1)NCc1ccccc1 | -0.45 | -0.41 |
| Nc1nnc(C2CCCC2)s1 | -0.65 | / |
| Cc1csc(C(=O)NN)c1Cl | / | -0.22 |
| CCCn1c(-c2ccccc2)cn2c3c(=O)n(C)c(=O)n(C)c3nc12 | 0.8 | 0.36 |
| COCc1c(C#N)c(Nc2cccc(C(F)(F)F)c2)nc(C)c1[N+](=O)[O-] | / | -0.55 |
| CN(C)C(=O)c1ccc(-c2nnc(Nc3ccccc3O)c3ccccc23)cc1 | / | -0.15 |
| CCOC(=O)C1=C(N)N(c2cccc([N+](=O)[O-])c2)C2=C(C(=O)CCC2)C1c1ccc(Br)cc1 (stereo unspecified) | / | -1.4 |
| CC12CCC(=O)N1C(C(=O)N1CCN(S(=O)(=O)c3ccc(F)cc3)CC1)CS2 (stereo unspecified) | -0.8 | / |
| CCOC(=O)c1cnn(-c2ccccc2)c1N(C(=O)c1ccccc1F)C(=O)c1ccccc1F | 0.2 | 2.3 |

(listing goes on)
| smiles | AID504770 | CapD inh |
| --- | --- | --- |
| N#Cc1nc(-c2ccccc2F)oc1N1CCN(c2ccccc2)CC1 | -0.65 | 2.5 |
| COc1ccccc1C(C)NCC(=O)Nc1ccccc1C#N (stereo unspecified) | -1 | / |
| Cc1cc(C(=O)N/N=C/c2[nH]ncc2Cl)no1 | -0.3 | 1.3 |
| COc1cccc(-n2c(C)c3c(C)nnc(C)c3c2C)c1 | 0.4 | / |
| COC(=O)C1=CNC=C(C(=O)OC)C1c1ccc(C)s1 | -1.4 | 26 |
| CCOC(=O)C1CCN(C(=O)c2ccc(N3CC4CC(C3)c3cccc(=O)n3C4)c(NC(=O)c3ccc(OC)cc3)c2)CC1 (stereo unspecified) | / | 0.47 |
| COc1ccccc1NC(=O)Cn1c(=O)n(-c2ccccc2)c(=O)c2c3c(sc21)CN(C(C)=O)CC3 | -0.2 | 0.095 |
| Clc1ncccc1N=Cc1cccc(Br)c1 | 0.6 | 0.22 |
| CCOC(=O)c1cn(CC)c2ccc(S(=O)(=O)N3CCc4ccccc4C3)cc2c1=O | -0.7 | 4.5 |
| CC(C)n1c(CCCO)nc2ccccc21 | 0.4 | -0.46 |

New compounds follow.
| smiles | AID504770 | CapD inh |
| --- | --- | --- |
| O=C(Nc1ccc(F)c(F)c1)c1cnn(-c2ccccc2)n1 | -0.4 | / |
| C=CCSc1nc2c(c(-c3ccc(C)o3)c1C#N)CCCC2 | 1.1 | -0.54 |
| COC(=O)c1ccc(COc2ccc3ccccc3c2)o1 | -0.2 | 27 |
| Cn1c(=O)cc(Sc2ccccc2)n(Cc2cccc(C(F)(F)F)c2)c1=O | / | -0.1 |
| COC(=O)c1sccc1NC(=S)Nc1ccsc1C(=O)OC | / | -0.14 |
| Cc1cccc(OCCNCCO)c1C | 1.1 | -0.44 |
| O=C(NCc1ccc(Cl)cc1)c1ccc(CN2CCOCC2)cc1 | -0.3 | / |
| C[n+]1cc(C(=O)NCCC[N+]2(C)CCCC2)ccc1/C=N/O | -0.3 | 18 |
| COc1ccc(C2=Nc3ccccc3SC(C(=O)O)C2)cc1 (stereo unspecified) | -0.95 | / |
| Cn1cc(SC(=N)N)c2ccccc21 | 0.4 | -0.51 |

More entries follow:
| smiles | AID504770 | CapD inh |
| --- | --- | --- |
| Cc1cnc(C)c(N2CCC(C(=O)NCC3CC3)CC2)n1 | -0.3 | / |
| CSc1nc(C)cc(-c2ccccc2)n1 | -0.7 | / |
| O=C1C2ON(c3ccc(Cl)cc3)C(c3ccc(F)cc3)C2C(=O)N1Cc1ccccc1 (stereo unspecified) | -0.25 | 21 |
| Oc1c(Br)cc(Br)cc1/C=N/NC(=S)N[C@H]1CC2C=CC1C2 (stereo partly specified) | / | 0.14 |
| Cc1cc(C)cc(NC(=O)CN2C(=O)CCc3ccccc32)c1 | 0.7 | -0.005 |
| Cn1cc(SCC(=O)N2CCc3ccccc32)c2ccccc21 | 0 | -0.23 |
| Cc1ccc(CC(C#N)Sc2nc3ccccc3n2CCC#N)cc1 (stereo unspecified) | -0.7 | / |
| COC(=O)C1=CN(Cc2ccc(OC)c(OC)c2)C=C(C(=O)OC)C1c1ccccc1OC(C)C | / | 1.7 |
| CCCCn1nnnc1COC(=O)c1c(-c2c(F)cccc2Cl)noc1C | -0.45 | / |
| O=C(c1ccc(-n2ccc3ccccc32)s1)N1CCCCC1 | -0.45 | 3.4 |

(next part)
| smiles | AID504770 | CapD inh |
| --- | --- | --- |
| Cc1ccc(N2C3c4ccccc4N(S(=O)(=O)c4ccc(C)cc4)C2c2ccccc2N3S(=O)(=O)c2ccc(C)cc2)cc1 | / | -0.07 |
| CC(C)c1ccc(C(CC(=O)O)NC(=O)C2CCCCC2)cc1 (stereo unspecified) | -0.7 | -0.38 |
| COc1ccc(C(=O)NN(C)c2nc3ccccc3nc2C(F)(F)F)cc1 | / | 0.015 |
| CCN(C(=O)c1cnccc1C(F)(F)F)c1ccc(Cl)cc1 | -0.1 | -0.09 |
| CC(C)(O)C#CCN1CCCCC1 | -0.55 | 0.42 |
| c1coc(Cn2c(-c3ccco3)nc3ccccc32)c1 | 1.5 | 17 |
| O=C1Nc2ccccc2/C1=C\c1ccc(C(F)(F)F)cc1 | / | 0.15 |
| Cc1ccc(N2C(=O)c3ccc(Oc4cccc(N)c4)cc3C2=O)c(C)c1 | -0.5 | -0.17 |
| CCN1CCN(CCNC(=O)c2ccc(N3CCCc4ccccc43)s2)CC1 | -0.7 | 9 |
| CCOc1ccc2sc(NC(=O)CN3C(=O)C4C5C=CC(C5)C4C3=O)nc2c1 (stereo unspecified) | 0.25 | 0.78 |

Next section.
| smiles | AID504770 | CapD inh |
| --- | --- | --- |
| CN1CCN(C(=O)CN(c2cccc(Br)c2)S(=O)(=O)c2ccccc2)CC1 | 0.25 | 0.95 |
| COc1ccc(OC)c(CN2CCN(S(=O)(=O)c3ccc(C#N)cc3)CC2)c1 | / | -0.35 |
| Cc1cc(-n2c(C)cc(CNCC3(N4CCOCC4)CCCCC3)c2C)no1 | 0.2 | / |
| COc1ccc(CNC(=O)C2CCN(S(=O)(=O)N3CCCCC3)CC2)cc1 | -0.8 | -0.35 |
| O=C(Nc1cccc(F)c1C(=O)Nc1ccc(F)c(Cl)c1)c1cccc(C(F)(F)F)c1 | / | 0.14 |
| Cc1ccc2c(c1)CCCN2CC(=O)c1ccc2c(c1)OCCO2 | 0.9 | 0.21 |
| Cc1cc2c(cc1S(=O)(=O)NCCc1ccccc1)n(C)c(=O)c(=O)n2C | -0.9 | 3.9 |
| CCOC(=O)Cn1c2c(c(-c3ccccc3OC)cc1=O)CCCC2 | -0.1 | -0.04 |
| CN(C)S(=O)(=O)Oc1ccc(C(=O)Nc2ccc(Cl)c(Cl)c2)cc1 | / | 0.28 |
| COC(=O)Cn1nc(C)c2ccccc2c1=O | -0.8 | 0.17 |

(cont.)
| smiles | AID504770 | CapD inh |
| --- | --- | --- |
| O=C(NCc1ccccn1)c1ccc2c(=O)n(CC3CCCO3)c(=S)[nH]c2c1 (stereo unspecified) | / | 0.21 |
| Cc1cccc(C)c1NC(=O)CN(C)C(=O)c1ccccc1OC(F)F | 1.2 | / |
| COc1ccc(-c2noc(CN3CCC(C(=O)N(C)c4cc(C)ccc4C)CC3)n2)cc1OC | -0.4 | -0.61 |
| CCC(C)N(C)Cc1cccc(C2(O)CCN(S(=O)(=O)c3ccc(F)cc3)CC2)c1 (stereo unspecified) | 0.15 | 0.39 |
| CCc1cccc(CC)c1NC(=S)Nc1ccc(C)cc1 | -0.5 | 0.69 |
| FC(F)(F)c1cccc(NC(=S)NCCNc2nccc(C(F)(F)F)n2)c1 | -0.75 | 1.3 |
| O=C1CC2(Oc3ccccc3O2)C(=O)NN1 | 0.3 | / |
| Cc1ccc(C)c(SCC(=O)OCC(=O)N2C(C)CCCC2C)c1 (stereo unspecified) | -2.2 | -0.61 |
| N#Cc1ccc(NC2=NCCC2)cc1 | -0.35 | / |
| CCOC(=O)N1CCC(NC(=O)C(Cc2ccccc2)NC(=O)c2ccco2)CC1 (stereo unspecified) | 2 | -0.46 |

The listing continues:
| smiles | AID504770 | CapD inh |
| --- | --- | --- |
| N#C/C(C(=O)N1CCCCC1)=C1/C(=O)Nc2ccccc21 | -2.1 | -2.2 |
| Cc1ccc(C2Nc3ccc(C(=O)c4ccccc4)cc3NC3=C2C(=O)CCC3)o1 (stereo unspecified) | -0.5 | -2.1 |
| CC(=O)Nc1ccc(NC(=O)/C=C/c2ccccc2)cc1 | -0.65 | -0.45 |
| O=C(OCC(=O)N1CCNC1=O)c1cc(-c2ccc(Cl)cc2)nc2ccccc12 | 0.1 | / |
| CN(CC(=O)Nc1ccc(Cl)cc1)Cc1cc(=O)n2ccsc2n1 | 1.2 | / |
| CCC(=O)N(C/C=C/c1ccccc1)c1ccc2c(c1)OCCO2 | -0.55 | / |
| Cc1ccc(N2C(=O)c3ccccc3NC2c2ccc(OCc3ccccc3Cl)cc2)cc1C (stereo unspecified) | / | 28 |
| O=C(NCc1ccco1)c1cc(-c2cccs2)nc2ccccc12 | -0.8 | 80 |
| O=C(c1ccc(-n2cc(-c3ccncc3)cn2)cc1)N1CCc2ccccc2C1 | / | 0.025 |
| O=C(O)CCn1c(-c2ccccc2)cc2c1CCCC2=O | -0.65 | 1.9 |

Other records follow.
| smiles | AID504770 | CapD inh |
| --- | --- | --- |
| Cc1nc(=S)c2c([nH]1)-c1ccccc1CC21CCCCC1 | / | -0.17 |
| Cc1ccc(-c2nc(CS(=O)CC(=O)NCCN3CCCCC3C)c(C)o2)cc1 (stereo unspecified) | -0.35 | -0.02 |
| CCOC(=O)c1sc(N)c(C(=O)OCC)c1CSc1nc2ccccc2s1 | -0.35 | / |
| CC1Cc2ccccc2N1CC(=O)Nc1ccc2c(c1)OCCCO2 (stereo unspecified) | -0.85 | / |
| CN1CCCC1CCNC(=O)OCCCCc1ccc([N+](=O)[O-])cc1 (stereo unspecified) | / | -0.69 |
| N#Cc1cccc(NC(=O)c2c(F)cccc2F)c1 | / | 0.3 |
| CN1C(=O)/C(=C\c2ccc(-c3ccccc3)o2)SC1=S | -0.2 | -0.27 |
| CC(=O)N1CCC(N(C(=O)COc2cncc(Cl)c2)C2CC2)CC1 | / | 0.52 |
| Cc1cnnc(/N=C(\N)Nc2ccc(S(=O)(=O)Nc3nc(C)ccc3C)cc2)n1 | 0.2 | 39 |
| CCCN(CCC)C(=O)CSc1nc2ncccc2o1 | -1.6 | -0.11 |

(listing goes on)
| smiles | AID504770 | CapD inh |
| --- | --- | --- |
| CCCNS(=O)(=O)c1ccc(CN2C(=O)c3cccnc3C2=O)cc1 | 0.85 | -0.14 |
| N=C1SCC(=O)N1c1ccc(F)c(Cl)c1 | / | 0.21 |
| COC(=O)/C(=C\Nc1ccc(OC)cc1)NC(=O)c1ccc(OC)cc1 | / | -1.5 |
| CCOC(=O)C1=C(C)NC(SCC(=O)C23CC4CC(CC(C4)C2)C3)=C(C#N)C1c1cccs1 (stereo unspecified) | / | -0.16 |
| CCOC(=O)C1=C(C)N=c2s/c(=C/c3ccc(OC(C)=O)c(OCC)c3)c(=O)n2C1c1cccs1 (stereo unspecified) | / | -0.04 |
| O=C(O)c1ccc(N2C(=O)/C(=C/c3ccc(-c4ccc(Br)cc4)o3)C=C2c2ccccc2)cc1 | / | 0.69 |
| CCN1CCN(Cc2cccc(Br)c2)CC1 | 2 | -0.095 |
| CCSc1nnc(Cn2c(=O)sc3ccccc32)n1-c1ccccc1 | -0.95 | 0.12 |
| CC(C)(C)c1ccc(C(=O)NCC(=O)NCc2ccccn2)cc1 | -0.2 | / |
| Cc1nn(CCC#N)c2c1C(c1ccc3c(c1)OCO3)C1=C(CC(C)(C)CC1=O)N2 (stereo unspecified) | -0.1 | / |

Additional compounds:
| smiles | AID504770 | CapD inh |
| --- | --- | --- |
| O=C(COc1ccccc1F)c1ccc(O)cc1O | -0.5 | / |
| COCC(=O)N1CCN(c2ccccn2)CC1 | -0.9 | 23 |
| Cc1cc(C(N)=O)c(C)n1-c1ccc(-c2nc3ccccc3[nH]2)cc1 | -0.1 | / |
| Nc1cc(C(=O)OCC(=O)NC2CCCCCC2)ccc1Cl | -0.3 | 17 |
| O=C(NCc1ccccn1)c1ccccc1Cl | / | 0.36 |
| CC1CN(c2ncc(C(=O)OCC3CC3)c(C(F)(F)F)n2)CC(C)O1 (stereo unspecified) | -0.4 | 2.4 |
| CCOCCCN=C1SCC(CC)N1C(=O)c1ccc(C#N)cc1 (stereo unspecified) | -0.25 | / |
| Cc1cnc(C(=O)OCC(=O)N2CC(C)CC(C)C2)cn1 (stereo unspecified) | 3 | / |
| Cc1nn(CO)c(C)c1Sc1ccc(Br)cc1 | -0.55 | -0.29 |
| O=C(c1ccc(Cl)cc1)N1N=C(C(F)(F)F)CC1(O)c1cccnc1 (stereo unspecified) | / | 0.02 |

(listing goes on)
| smiles | AID504770 | CapD inh |
| --- | --- | --- |
| FC(F)(F)c1cccc(CN2CCN(c3nc4ccccc4s3)CC2)c1 | / | 2.2 |
| O=C1c2ccccc2-c2ccc(I)cc21 | / | 0.48 |
| COc1ccccc1NC(=S)N(CCN(C)C)C(C)c1ccncc1 (stereo unspecified) | 0.1 | 0.72 |
| CC(C)(C)C(=O)[C@@H]1[C@@H](c2ccc(Cl)cc2)C(C#N)(C#N)[C@H]2C=Cc3ccccc3N12 | / | 6 |
| Brc1ccc(Oc2ccc(Nc3nc4ccccc4o3)cc2)cc1 | 0.25 | / |
| CCOc1ccccc1NC(=O)N1CCOc2ccc(Cl)cc21 | -0.4 | -0.39 |
| c1ccc(-c2nsc(N3CCOCC3)n2)cc1 | -0.75 | 0.23 |
